Screening results: PubChem BioAssay, National Center for Advancing Translational Sciences (NCATS)
TSHR agonist = TSH receptor (human) agonism; P16473; HEK293-CNG-TSHR cells (CNG channel as cAMP sensor), membrane potential dye, cAMP; Potency, µM (top dose mostly 57.1 µM), for inactives: at the highest dose activation, most hits filed as activators; 73,000 tested, 0.48% active; active = well fitted activation curve of enough size with the parental cells flat; inconclusive = any curve in the parental cells; inactive = parental cells flat and receptor cells flat or falling; note: potency is the fitted concentration of half-maximal effect; % of control where 0% means no effect; weak receptor curves with flat parental cells got no call and are not listed
Target sequence (P16473 whole entry, looked up): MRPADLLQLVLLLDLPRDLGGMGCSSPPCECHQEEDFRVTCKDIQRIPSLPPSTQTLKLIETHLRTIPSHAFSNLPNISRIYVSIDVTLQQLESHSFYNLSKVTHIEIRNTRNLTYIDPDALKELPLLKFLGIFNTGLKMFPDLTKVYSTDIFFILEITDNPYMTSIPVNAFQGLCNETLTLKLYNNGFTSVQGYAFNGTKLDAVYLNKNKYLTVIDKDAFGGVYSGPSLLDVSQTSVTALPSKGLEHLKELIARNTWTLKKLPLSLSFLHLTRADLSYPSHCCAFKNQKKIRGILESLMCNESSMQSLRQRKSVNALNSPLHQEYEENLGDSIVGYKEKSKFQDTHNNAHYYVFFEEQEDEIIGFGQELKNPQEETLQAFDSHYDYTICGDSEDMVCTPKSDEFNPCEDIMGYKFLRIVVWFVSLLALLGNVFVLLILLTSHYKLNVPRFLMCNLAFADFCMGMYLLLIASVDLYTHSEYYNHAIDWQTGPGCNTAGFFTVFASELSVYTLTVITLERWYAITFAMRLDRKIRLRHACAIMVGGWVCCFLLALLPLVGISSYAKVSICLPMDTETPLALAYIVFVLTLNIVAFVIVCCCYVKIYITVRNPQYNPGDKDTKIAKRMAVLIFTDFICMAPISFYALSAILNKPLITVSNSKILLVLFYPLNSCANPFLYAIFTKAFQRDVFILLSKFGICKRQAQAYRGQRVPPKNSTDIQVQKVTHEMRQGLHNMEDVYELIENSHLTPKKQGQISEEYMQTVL
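HEK 293 cells stably expressing TSHR and a modified CNG channel, with CNG-only parental cells as counterscreen, were preloaded 60 min at room temperature with membrane potential dye containing 100 uM RO 20-1724. Compound exposure was 30 min, and depolarization was read as fluorescence at 590 nm.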
AID923 = qHTS Assay for Allosteric/Competitive Inhibitors of Caspase-1: Spectroscopic Profiling in AFC Spectral Region | 75,000 tested, 1.1% active | compound fluorescence, AFC spectral region (405/520 nm); almost no hit is shown here | AID 923, 2007 | Potency, µM (series often up to 57.5 µM), for inactives: at the top dose fluorescence increase, hits mostly activators; active = well fitted activation curve with a large enough effect; inconclusive = small, poorly fitted or top-dose-only effect;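 note: potency is the fitted concentration of half-maximal effect; 0% is about no effect; scaled to a free AFC standard on each plate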
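Baseline compound fluorescence (AFC region, 405 nm ex/520 nm em) taken from the intercept of kinetic reads with 50 nM caspase-1 and 5 uM Ac-WEHD-AFC; normalized to an on-plate AFC standard curve; compounds titrated up to 57 uM.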
Resorufin fluor = compounds fluorescent in resorufin spectral region. 59,000 tested, 0.04% active. Compound fluorescence, resorufin region 547/598 nm, buffer; stronger effect = higher value. max dye-equivalent concentration, M; active = above 10 nM dye equivalent; inconclusive = 1 to 10 nM; inactive = 1 nM or less; a few of its hits are not listed in these tables; note: highest value over a series up to 38 µM
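Compounds in 100 mM Tris, pH 8.0, incubated 15 min at room temperature, then fluorescence read at 547 nm excitation/598 nm emission. Signal converted to dye-equivalent concentration via an on-plate six-point resorufin standard curve, per compound concentration.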
A647 fluor = A647 region autofluorescence; Compound fluorescence, A647 channel (570/671 nm), Tris buffer; max dye-equivalent concentration, M; 59,000 tested, under 10 active; active means above 1 µM dye equivalent; inconclusive means 0.1 to 1 µM; inactive means 0.1 µM or less;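 note: values scaled relative to a standard on each plate; highest value over a series up to 38 µM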
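Each compound's intrinsic fluorescence at 570 nm excitation and 671 nm emission is measured across its concentration series in 100 mM Tris, pH 8.0, after 15 min at room temperature, and reported relative to an A647 curve.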
A488 autofl = compound fluoresces in the A488 spectral region. max dye equivalency, M. 59,000 tested, 0.1% active. compound autofluorescence, A488 spectral region, dye equivalency; stronger effect = higher value; active = above 10 nM dye equivalent; inconclusive = 1 to 10 nM; inactive = 1 nM or less; about half of its hits are not listed in these tables;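 note: highest value over a series up to 38 µM; compound alone in buffer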
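Compound autofluorescence was read in 100 mM Tris pH 8.0 after 15 min at room temperature, ex 480 nm/em 540 nm. Intensities were converted to A488 dye-equivalent concentration using an on-plate six-point A488 standard curve.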
Numbers without * were called inactive; i = inactive; ? = inconclusive; . = not tested or not shown; & = joins results of further samples; [ ] = dose if it differs, or a comment.

Start of the data: the first two entries, ahead of the listing:
Second line of a record – TSHR agonist | AID923 | Resorufin fluor | A647 fluor | A488 autofl
1. CC(Oc1ccccc1Cl)C(=O)N(Cc1ccco1)C1CCS(=O)(=O)C1 (centres undefined)
 : ? | -2.0% | i | 1e-09 | i
2. CCOc1ccccc1NC(=O)CSc1nnc2c(CC)c(C)nc(N)n12
 : 8% | 1.9% | i | 1e-09 | i

Main list, repeating the preview:
Second line of a record – TSHR agonist | AID923 | Resorufin fluor | A647 fluor | A488 autofl
1. CC(Oc1ccccc1Cl)C(=O)N(Cc1ccco1)C1CCS(=O)(=O)C1 (centres undefined)
 : ? | -2.0% | i | 1e-09 | i
2. CCOc1ccccc1NC(=O)CSc1nnc2c(CC)c(C)nc(N)n12
 : 8% | 1.9% | i | 1e-09 | i
3. Cc1cccc(-n2c(Cc3cc(=O)[nH]c(=O)[nH]3)nnc2SCC(=O)NCC2CCCO2)c1 (centres undefined)
 : 2% | -3.7% | . | . | .
4. CSc1cccc(NC(=O)CN(c2cc(C)ccc2C)S(C)(=O)=O)c1
 : 3% | 0.7% | . | . | .
5. Cc1ccccc1-c1cc(NCc2cccnc2)ncn1
 : 27% | 1.1% | i | 1e-09 | i
6. CC12CCC(C(=O)Nc3cccnc3)(CC1=O)C2(C)C (centres undefined)
 : 2% | -2.4% | i | 4.1e-09 | i
7. O=C1NCCN1Cc1ccccc1F
 : 10% | -0.8% | i | 1e-09 | i
8. OCCn1c(SC2CCCCC2)nc2ccccc21
 : 20% | -1.5% | i | 1e-09 | i
9. O=C(Cn1c(=O)oc2cc(S(=O)(=O)N3CCc4ccccc43)ccc21)NC1CCCC1
 : -1% | -0.3% | . | . | .
10. CCOC(=O)C1CCN(S(=O)(=O)c2c(C)n[nH]c2C)CC1
 : 2% | 0.1% | i | 2.4e-09 | i
11. COc1ccc(N2CCN(c3ccc(N)cc3C#N)CC2)cc1
 : -5%[11.4 µM] | 0.9% | i | 1.4e-09 | i
12. Cc1onc(-c2ccccc2)c1C(=O)Nc1ccc2c(C)cc(=O)oc2c1
 : 14% | 3.3% | i | 1.3e-09 | i
13. CCCCCn1c2nc3ccccc3nc2c2c(=O)n(CC(C)C)cnc21
 : . | . | i | 5e-09 | i
14. O=C(NCc1nnc(SC/C=C/c2ccccc2)o1)c1ccco1
 : 5%[11.4 µM] | -1.4% | i | 5.1e-09 | i
15. Cc1ccc(C)c(NC(=O)CCN2CC(C)OC(C)C2)c1 (centres undefined)
 : 2% | -0.1% | i | 1.5e-09 | i
16. C/C=C(/C)C#N
 : -5% | 0.7% | . | . | .
17. O=C(CC1Oc2ccccc2NC1=O)NCCCN1CCCC1=O (centres undefined)
 : -11% | -1.8% | . | . | .
18. Cc1ccccc1OCCN1C(=O)NC2(CCc3ccccc32)C1=O (centres undefined)
 : -4% | 0.8% | i | 9.4e-09 | i
19. CCOc1ccc(Cc2nn[nH]n2)cc1
 : 1% | 1.7% | i | 1e-09 | i
20. CC(=O)NC(CCS(C)(=O)=O)C(=O)Nc1c(C)cccc1C (centres undefined)
 : -6% | 0.8% | . | . | .
21. O=C(Oc1ccc2c(c1)CCC2)N1CCOCC1
 : 1% | -0.8% | i | 8.1e-08 | i
22. O=C(Oc1ccc2c(c1)OCO2)c1ccncc1
 : 0% | -0.3% | i | 3.2e-08 | i
23. O=C(CSc1nccn1-c1ccc(F)cc1)Nc1ccc2c(c1)OCO2
 : 1% | 1.8% | i | 8.7e-09 | i
24. COc1cc2c(cc1OC)C(C(=O)Nc1ccc3c(c1)OCCO3)C1c3ccccc3CCN1C2=O (centres undefined)
 : ? | 0.1% | i | 1e-09 | i
25. COc1ccc(CCNC(=O)Cn2c(=O)cnc3ccccc32)cc1
 : -4%[11.4 µM] | -1.0% | i | 1e-09 | i
26. Fc1ccc(C2CC(c3ccccc3)Nc3ncnn32)cc1 (centres undefined)
 : ? | -0.2% | . | . | .
27. COC1CCCCC1NS(=O)(=O)c1ccc(Cl)cc1 (centres undefined)
 : -7% | -0.1% | . | . | .
28. CCOc1ccccc1NC(=O)c1ccc(S(=O)(=O)N2CCOCC2)cc1
 : -2% | 0.6% | i | 2.5e-08 | i
29. O=S(=O)(c1ccc(Cl)s1)N1CCN(C/C=C/c2ccccc2)CC1
 : 3% | -0.1% | i | 2.8e-08 | i
30. O=S(=O)(c1cccc(-c2nnc(-c3cccnc3)o2)c1)N1CCCCC1
 : 11% | -0.7% | . | . | .
31. CCCC(c1nnnn1C1CCCC1)N1CCN(C(=O)c2ccco2)CC1 (centres undefined)
 : ? | 0.4% | i | 4.1e-09 | i
32. CCOC(=O)C1CCN(c2ncnc3c2cnn3-c2ccccc2)CC1
 : 14% | 0.9% | i | 1.3e-08 | i
33. CCc1nnc(NC(=O)CSc2nnc(-c3ccoc3C)n2-c2cccc(C)c2)s1
 : ? | -2.5% | i | 2.3e-08 | i
34. Nc1nc2ccc(C(=O)Nc3ccccc3)cc2s1
 : -3% | 0.4% | i | 1.3e-09 | i
35. COC(=O)c1cc2c(cc1NC(=O)CSCCc1ccccn1)OCO2
 : ? | 0.1% | i | 5.1e-08 | i
36. COC(=O)C1=C2SC(C)C(=O)N2C(N)=C(C#N)C1c1cc(OC)c(OC)c(OC)c1 (centres undefined)
 : . | 0.7% | i | 9.3e-09 | i
37. COc1ccc(OC)c(C(c2nnnn2CC2CCCO2)N2CCN(C3CCCC3)CC2)c1 (centres undefined)
 : ? | -0.1% | i | 1e-09 | i
38. CC(=O)c1c(O)cc(C)n(Cc2ccccc2)c1=O
 : 25% | -0.4% | i | 3.5e-08 | i
39. Cc1cc(C)c2nc(C(F)(F)F)nc(N3CCN(C(=O)c4ccco4)CC3)c2c1
 : . | -2.1% | i | 6.1e-09 | i
40. Clc1ccccc1-c1cc(NCCN2CCOCC2)ncn1
 : . | 1.1% | i | 1.5e-08 | i
41. COc1ccc(CCNC(=O)c2nnn(-c3ccccc3OC)c2N)cc1OC
 : -5% | 0.1% | i | 1e-09 | i
42. O=C(NCCc1ccc(Cl)cc1)C1CCN(c2cnccn2)CC1
 : -1% | -1.4% | i | 1.2e-09 | i
43. CN1CCN(CC(=O)Nc2cccc3ccccc23)CC1
 : 2%[11.4 µM] | 0.2%[11.5 µM] | i | 3.5e-08 | i
44. O=C(c1ccncc1)N1CCN(C(=O)c2ccco2)CC1
 : . | -0.2% | i | 7.8e-08 | i
45. O=C(COc1ccccc1)Nc1ccc(Cl)c(-c2nc3ncccc3o2)c1
 : ? | -0.9% | i | 3.6e-09 | i
46. CCOC(=O)c1ccc(NC(=O)CC2Sc3ncnn3C2=O)cc1 (centres undefined)
 : -2% | -2.6% | i | 2.1e-08 | i
47. O=C(Cc1nc2ccccc2[nH]1)NCc1ccco1
 : -1% | 7.8% | i | 1e-09 | i
48. COC(=O)C1CCN(C(=O)COc2cc3sc(C)nc3c3sccc23)CC1
 : ? | 1.1% | i | 1e-09 | i
49. CC(C)(C)OC(=O)N1CCN(c2ccc(NC(=O)c3cc4ccccc4oc3=O)cc2)CC1
 : 6% | -0.7% | i | 2.8e-08 | i
50. CN1CCN2c3ccccc3Cc3ccccc3[C@@H]2C1
 : ? | -0.6% | i | 2.9e-08&1.1e-09 | i
51. Cc1ccc(-n2c(N)c(C(N)=O)sc2=S)c(C)c1
 : -7% | 0.0% | i | 1.1e-09 | i
52. Cn1c(=O)oc2cc(S(=O)(=O)NCc3ccncc3)ccc21
 : . | -0.9% | i | 4.4e-09 | i
53. Cc1cc(C)nc(SCC(=O)Nc2ncc3c(n2)CC(C)(C)CC3=O)n1
 : 0% | -0.2% | i | 6.4e-09 | i
54. O=C(NCCOc1nc(N2CCCCC2)nc(N2CCOCC2)n1)Nc1ccccc1
 : 11% | -1.1% | i | 3.5e-08 | i
55. COc1cc(-c2nn3c(-c4ccccn4)nnc3s2)cc(OC)c1OC
 : . | . | i | 5.5e-09 | i
56. Oc1ccc2oc3c(c2c1/C=N/n1cnnc1)CCCC3
 : 0% | 2.4% | . | . | .
57. COc1ccc(C2CC(=O)C(C=NCCO)=C(O)C2)cc1OC (centres undefined)
 : ? | 8.6% | . | . | .
58. C(=N\c1nccs1)/c1cccnc1
 : -5% | -1.0% | . | . | .
59. c1ccc2c(c1)c1c3n2CCNC3CCC1 (centres undefined)
 : 0% | 7.5% | i | 6.3e-09 | i
60. CCOC(=O)CNC(=O)c1cn(CC(C)C)c(=O)c2cc(OC)c(OC)cc12
 : 6% | 0.3% | i | 1.9e-08 | i

The list goes on.
Second line of a record – TSHR agonist | AID923 | Resorufin fluor | A647 fluor | A488 autofl
61. c1cncc(-c2nc3ccccc3o2)c1
 : 3% | -0.7% | i | 9.4e-09 | i
62. O=C(Nc1ccc2oc(=O)c(C(=O)O)cc2c1)Oc1ccccc1
 : 1%[11.4 µM] | -0.3%[11.5 µM] | i | 1e-09 | i
63. CC1=C(/C=C/C(C)=C/C=C/C(C)=C/C=O)C(C)(C)CCC1
 : 21% | 1.2% | . | . | .
64. Cc1cccc(OCCNc2nc3c(c(=O)n(C)c(=O)n3C)n2C)c1
 : 9% | -1.3% | i | 1e-09 | i
65. Cc1ccc(Cl)c(OCC(O)CN(CCO)CCO)c1 (centres undefined)
 : -7% | 1.0% | i | 1e-09 | i
66. CCCn1nnc(NC(=O)COc2cc(C)ccc2C(C)C)n1
 : 1% | 2.2% | i | 2.2e-08 | i
67. CCc1ccccc1NC(=O)CN(C)C(=O)CN1C(=O)NC2(CCCCCC2)C1=O
 : 3% | 0.5% | i | 1.1e-08 | i
68. Cc1cnc(CNc2ccnc(-c3ccccc3C)n2)cn1
 : ? | 2.7% | i | 3.2e-09 | i
69. CS(=O)(=O)N(CC(=O)N1CCN(c2cccc(Cl)c2)CC1)c1ccccc1
 : 14% | -2.3% | i | 3.3e-08 | i
70. O=C(c1ccc(C23CC4CC(CC(C4)C2)C3)o1)N1CCOCC1
 : 13µM* | -1.1% | i | 1e-09 | i
71. CCn1cc(C(=O)NCc2ccco2)c(=O)c2cc(S(=O)(=O)N3CCCCCC3)ccc21
 : 5% | 0.7% | i | 1e-09 | i
72. c1cncc(-c2nccc(NCc3cccs3)n2)c1
 : 8% | 4.1% | i | 2.7e-09 | i
73. CCCOc1ccc(NC(=O)C2CCCNC2=O)cc1 (centres undefined)
 : -2% | 1.2% | i | 2.2e-08 | i
74. Cc1cc(C)c2c3c(sc2n1)C(=O)N(C)CC(=O)N3
 : 1% | 1.4% | i | 1e-09 | i
75. Cc1ccc(C(=O)COC(=O)CNC(=O)c2ccco2)cc1
 : 0% | 2.3% | i | 1e-09 | i
76. Cc1cc(C)nc(NC2=NCC(=O)N2c2ccc3c(c2)OCCO3)n1
 : -3% | 5.1% | i | 3.6e-09 | i
77. O=C(CCCC(=O)n1cnc2ccccc21)n1cnc2ccccc21
 : -4% | 1.4% | . | . | .
78. COc1ccc(OC)c(-n2nnnc2SCC(=O)NCc2ccc3c(c2)OCO3)c1
 : 7% | -0.4% | i | 1.3e-09 | i
79. CC(C)(C)NCC1(CO)SC(N)=NC1=O (centres undefined)
 : -3% | 1.9% | i | 5.6e-08 | i
80. O=C(OCC(=O)N1CCN(C(=O)c2ccco2)CC1)c1cc(=O)c2ccccc2o1
 : -1% | -2.3% | i | 3.4e-09 | i
81. CN(C)C(CNS(=O)(=O)c1ccc(Br)cc1)c1cccnc1 (centres undefined)
 : 4% | 0.4% | i | 1.2e-08 | i
82. CN(C1CCCCC1)S(=O)(=O)c1ccccc1
 : 16% | -0.6% | i | 1e-09 | i
83. CCC(Oc1ccc2ccccc2c1)C(=O)O (centres undefined)
 : 17% | -1.7% | i | 2.1e-09 | i
84. c1cnc(N2CCSCC2)nc1
 : 8% | 1.3% | . | . | .
85. N=c1ncn(CC(O)CN2CCOCC2)c2nc(N3CCOCC3)[nH]c12 (centres undefined)
 : . | . | i | 7.1e-09 | i

An excerpt; the hit share may differ from the screen's.
